Sfp inh = Sfp phosphopantetheinyl transferase inhibition; Q9F4F7; Biochemical Sfp PPTase activity, qHTS; Potency, µM, without a hit: max response, negative = inhibition, actives largely listed as inhibitors; 310,000 tested, 3.5% active; active = well fitted inhibition curve with a large enough effect; inconclusive = small, poorly fitted or top-dose-only effect, or another doubt; inactive = no such curve, though single readings can be large or run the other way;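 also: the enzyme is Sfp with the accession as filed and its product quenches rhodamine fluorescence; potency is read from the fitted curve at half-maximal effect; 0% = enzyme reaction without inhibitor and -100% = no enzyme wells; top concentration of the series not given in the record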
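Buffer: 50 mM Hepes-Na pH 7.6, 10 mM MgCl2, 0.01% Nonidet P-40, 0.01% BSA. Enzyme 15 nM, pre-exposed to compound 15 min; substrates then added and fluorescence change tracked over 30 min.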
D2 ag = human D2 receptor agonism in beta-arrestin assay. P14416. DiscoveRx PathHunter D2 beta-arrestin, luminescence, 90 min; 100% = 57 uM dopamine signal. activation, % (concentration not given with the values). 360,000 tested, 0.084% active. AID 624465; in the data active = activation above about 40%; inconclusive = about 15% to 40%; inactive = below about 15%; also: compound concentration not given in the record; the text of the record calls up to 30% inactive
Target sequence (P14416 whole entry, looked up): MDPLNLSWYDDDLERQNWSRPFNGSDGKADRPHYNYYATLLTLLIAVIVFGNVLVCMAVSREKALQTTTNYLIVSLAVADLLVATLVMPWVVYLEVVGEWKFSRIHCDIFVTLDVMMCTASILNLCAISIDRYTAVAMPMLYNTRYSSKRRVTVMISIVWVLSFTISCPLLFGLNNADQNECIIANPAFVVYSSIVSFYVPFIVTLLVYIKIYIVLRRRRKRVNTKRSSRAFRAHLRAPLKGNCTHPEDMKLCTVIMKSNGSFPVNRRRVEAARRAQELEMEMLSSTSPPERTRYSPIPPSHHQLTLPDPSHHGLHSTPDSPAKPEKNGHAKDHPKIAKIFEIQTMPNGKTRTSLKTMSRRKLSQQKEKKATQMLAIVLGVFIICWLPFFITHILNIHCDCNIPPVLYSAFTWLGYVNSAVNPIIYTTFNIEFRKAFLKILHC
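DiscoveRx PathHunter D2 beta-arrestin cells (2,100/well) attached overnight, then compound-stimulated 90 min at 37 C in HBSS/10 mM HEPES/0.1% Tween-20 buffer; beta-galactosidase complementation read by luminescence after 1 h at ambient temperature. Dopamine 57 uM final (EC100) as control.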
PINK1 modulator = modulators of PINK1 expression. PINK1 immunofluorescence, high-content cytometry, 24 h. 410,000 tested, 0.2% active. Potency, µM (top dose mostly 76.6 µM), inactives show at the top dose activation (PINK1 increase), most hits filed as activators; active = well fitted activation curve with a large enough effect; inconclusive = small, poorly fitted or top-dose-only effect; inactive = flat fitted curve, though single readings scatter; cell line not stated here;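 also: potency is read from the fitted curve at half-maximal effect; % of control where 0% means no effect; nearly all actives have a fitted effect of over 65% in size; a mitochondrial uncoupler was the plate control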
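Measures PINK1 amount and localization on or inside mitochondria by immunofluorescence. Stable cells get compounds at 5 concentrations for 24 hours before fixation and staining; CCCP controls included.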
gsp antag = antagonizes gsp, the McCune-Albright syndrome mutation. gsp-mutant cells, cAMP HTRF, 30 min; control for the full effect not named in the record. Potency, µM (top dose mostly 76.9 µM), for the others: at the top dose activity change, negative = inhibition, most hits filed as inhibitors. 340,000 tested, 0.4% active; active = falling curve of any shape with a large fitted effect; inconclusive = falling curve, mostly with a smaller effect; inactive = flat or rising curve; cell line not stated here;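 also: intracellular cAMP measured with PDE inhibitor Ro 20-1724 present during compound exposure; potency is read from the fitted curve at half-maximal effect; % is scaled to controls: 0 for no effect and ±100 for the full control effect; nearly all actives have a fitted effect of over 65% in size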
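Cells in G418 medium, seeded 16-24 h, 37C; buffer exchange to DPBS + 1 mM CaCl2, 0.5 mM MgCl2, 0.05% BSA; cpds in DMSO + […] (300 uM stock), 30 min 37C; HTRF cAMP detection.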
Menin-MLL FL inh = menin-MLL binding inhibition, fluorescein peptide; Fluorescence polarization, fluorescein-MLL peptide displacement from menin; FP activity change, % at 61.4 µM; 290,000 tested, under 10 active; AID 1766; inconclusive = falling polarisation curve, or a change in total fluorescence; inactive = total fluorescence flat and polarisation flat or rising; no compound was filed as active; the % refers to the polarisation; negative = inhibition;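 also: % of control where 0% means no effect; inhibitors lower the polarisation; unlabelled MLL peptide was the positive control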
gsp ag = gsp mutant agonism; Potency, µM (highest dose often 76.9 µM), without a hit: top-dose activation (cAMP increase), hits mostly activators; 340,000 tested, 0.13% active; AID 624287; gsp mutant cells, cAMP HTRF, 30 min; control for the full effect not named in the record; active = well fitted activation curve with a large enough effect; inconclusive = small, poorly fitted or top-dose-only effect, or another doubt; inactive = no such curve, though single readings can be large or run the other way; cell line not stated here;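 also: phosphodiesterase inhibitor Ro 20-1724 added with compounds to block cAMP breakdown; potency is read from the fitted curve at half-maximal effect; nearly all actives have a fitted effect of over 60% in size; about a fifth of the inactives were tested at one dose only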
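Cells stably selected in G418 were plated at 2000/well, grown 16-24 hr, then given compounds in DMSO with the PDE inhibitor […] (300 uM solution added) for 30 min at 37C; cAMP was read by HTRF.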
ClpP mod = qHTS Assay for Activators of ClpP; ATP-dependent Clp protease proteolytic subunit (Bacillus subtilis (strain 168)), P80244; purified B. subtilis ClpP, FRET peptide cleavage, 20 min; Potency, µM (top dose mostly 57.5 µM), without a hit: at the top dose activity change, negative = active; 340,000 tested, 1.9% active; AID 651965, 2013; active = well fitted falling curve with a large enough effect; inconclusive = small, poorly fitted or top-dose-only effect; inactive = no such curve, though single readings can be large or run the other way; also: potency is read from the fitted curve at half-maximal effect; the source files actives as falling curves though it sought activators and does not explain the sign; nearly all actives have a fitted effect of over 65% in size; many hits overshoot -100%
Target sequence (P80244 whole entry, looked up): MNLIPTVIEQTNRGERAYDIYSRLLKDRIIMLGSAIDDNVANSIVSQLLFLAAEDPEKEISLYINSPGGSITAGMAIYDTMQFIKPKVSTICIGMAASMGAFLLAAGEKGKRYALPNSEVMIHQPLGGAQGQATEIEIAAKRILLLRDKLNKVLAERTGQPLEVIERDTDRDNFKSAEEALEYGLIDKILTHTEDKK
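FRET quenching reversal measured ClpP activation: 10 microg/mL B. subtilis ClpP at pH 8 with the FRET-FV decapeptide, read at 430 nm after 320 nm excitation. The 20-min minus 0-min signal was scaled between DMSO/no-enzyme wells and ADEP (5.8 microM final).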
The depositor's hits bear a star; u = inconclusive; x = no result given; [ ] = dose if it differs, or a comment. An unsorted share of the library; any-hit rate near 5.1%.

1) C#CCN(C[C@H]1[C@H](OC(=O)NCc2ccc(OC)c(OC)c2)[C@H](OC(=O)NCc2ccc(OC)c(OC)c2)C[C@@H](C(=O)OC)[C@H]1C(=O)OC)S(=O)(=O)c1ccc(C)cc1
2) O=C(NCCS(=O)(=O)NCCc1ccccc1)c1ccccc1
3) CC(Oc1ccc2c(-c3ccccc3)cc(=O)oc2c1)C(=O)NCC(O)c1ccccc1 (centres undefined)
4) CNC(=S)NCCc1cc2c(OC)ccc(OC)c2[nH]c1=O
5) O=C(C/C=N/OCc1ccccc1F)c1cnc(-c2ccc(Cl)cc2)s1
6) CCCCCCc1c(C)[nH]c2nc3ccccc3n2c1=O
7) CC(=O)c1c(C)[nH]c(C(=O)N2CC(C)CC(C)C2)c1C (centres undefined)
8) CC(=O)NCCNc1nc(-c2ccccc2C(F)(F)F)nc2ccccc12

Compound	1	2	3	4	5	6	7	8
Sfp inh	x	x	7%	-7%	22%	1%	9%	13%
D2 ag	4.4	-0.4	-5.1	-1.3	-3.1	-2.4	-1.3	x
PINK1 modulator	4.9%	-2.1%	0.7%	-0.7%	4.5%	0.2%	1.9%	-0.1%
gsp antag	x	3%	-21%	40%[activator]	-5%	8%	9%	x
Menin-MLL FL inh	x	x	2.8	-5.5	0.0	5.4	-7.8	-0.3
gsp ag	-1%	-28%	x	12%	23%	-32%[inhibitor]	-13%	x
ClpP mod	1.2%	0.6%	-14%	-3.6%	-7.5%	-12%	0.0%	x

9) CCOc1ccccc1NC(=O)c1cc(CC(C)C)oc1C
10) Cc1ccc(C)n1-c1sc2c(c1C#N)CCCC2
11) CCC(Sc1ncnc2c1c(-c1ccccc1)cn2-c1ccc(OC)cc1)C(=O)OC (centres undefined)
12) COc1ccc(NC(=O)C2CCN(C(=O)c3cccs3)CC2)c(OC)c1
13) COC(=O)c1cccc(COC(=O)c2ccccc2NC(=O)c2ccco2)c1
14) COc1ccc([C@H]2CC(=O)C=C(c3cc(C)ccc3OC)C2)cc1
15) CC(O)[C@H]1CNC(=O)C(=O)N1CCC12CC3CC(CC(C3)C1)C2 (some centres undefined)
16) Cc1c(C(=O)Nc2ccc3c(c2)OCCO3)oc2ccc(Br)cc12

Compound	9	10	11	12	13	14	15	16
Sfp inh	-7%	-4%	1%	15%	u	x	-4%	x
D2 ag	-6.3	4.1	-1.9	-0.6	0.4	-5.2	-0.3	-0.7
PINK1 modulator	8.1%	1.4%	2.4%	-2.8%	0.5%	2.2%	-0.1%	4.1%
gsp antag	-5%	u	-4%	0%	3%	-9%	-3%	-15%
Menin-MLL FL inh	0.0	1.2	3.3	-0.6	-0.3	x	3.1	x
gsp ag	27%	-21%	2%	u	-87%[inhibitor]	u	24%	-3%
ClpP mod	-1.2%	-0.9%	32µM*	-1.3%	-6.3%	-1.6%	1.5%	-9.7%

17) Cc1nnc(NC(=O)c2sc3ccccc3c2Cl)s1
18) O=C(O)c1cccc(CSc2nnc(-c3ccco3)o2)c1
19) Cc1cc(C(=O)COC(=O)/C=C/c2cccc(F)c2)c(C)n1C
20) COc1ccccc1C(=O)NCC(=O)N/N=C/c1cccc(Cl)c1
21) O=C(Cn1ncc2c3ccccc3n(Cc3ccccc3)c2c1=O)NCCCN1CCCC1=O
22) CCCCOc1ccc(N(CC(=O)NCCOC)C(=O)CCC(=O)Nc2ccccn2)cc1
23) Cc1cccc(-c2nnc3sc(-c4ccccc4C)nn23)c1
24) COC(=O)c1ccc(Nc2nc(C)cc(C)n2)cc1

Compound	17	18	19	20	21	22	23	24
Sfp inh	-12%	6%	-3%	3%	5%	6%	50µM*	9%
D2 ag	-2.7	-1.3	-1.6	-2.5	-2.5	1.5	-0.4	-6.5
PINK1 modulator	0.5%	x	1.5%	6.5%	1.2%	0.2%	7.7%[38.3 µM]	1.6%
gsp antag	u	-10%	0%	-3%	-4%	32µM*	-20%	14%
Menin-MLL FL inh	10	-0.1	2.5	-2.8	-2.8	0.0	1.1	4.3
gsp ag	u	0%	-2%[15.4 µM]	-25%	u	-10%	7%	-3%
ClpP mod	-5.9%	1.4%	x	-0.1%	3.7%	-1.2%	-1.2%	-10%

Look-ups from the list.
For gsp ag, CCOc1ccccc1NC(=O)c1cc(CC(C)C)oc1C shows 27%
For gsp antag, COC(=O)c1cccc(COC(=O)c2ccccc2NC(=O)c2ccco2)c1 shows 3%

(next part)
25) O=S(=O)(c1ccc(=S)[nH]c1)N1CCCC1
26) C/C(=N\OC(=O)c1ccc(F)cc1)c1sc(-c2ccccc2)nc1C
27) CCN(CC)C(C(=O)NC1CCCCC1)c1ccc(C)cc1 (centres undefined)
28) COc1ccc2nc(N3CCCC(C(=O)NCCCN4C(C)CCCC4C)C3)sc2c1 (centres undefined)
29) Cc1cccc(SCc2noc(C(=O)NC(C)C)c2C(=O)O)c1
30) O=C(NCCc1ccccc1)c1cccc(NC(=O)c2ccccc2)c1
31) O=c1[nH]c(=O)n(-c2cc(Br)c(O)c(Br)c2)cc1Br
32) O=c1ccc2cc(S(=O)(=O)N3CCN(c4ccccc4)CC3)ccc2o1

Compound	25	26	27	28	29	30	31	32
Sfp inh	x	18%	16%	23%	7%	x	19%	3%
D2 ag	-4.4	-2.5	-1.8	-3.2	-1.8	3.9	-7.6	-0.4
PINK1 modulator	2.4%	0.7%	1.4%	1.4%	-1.1%	-0.3%	-1.0%	6.5%
gsp antag	3%	8%	10%	-7%	-2%	-1%	-3%	11%
Menin-MLL FL inh	x	2.5	0.0	-1.2	-1.0	x	1.5	3.0
gsp ag	-8%[15.4 µM]	-46%[inhibitor]	0%[15.4 µM]	5%[15.4 µM]	3%	x	-1%	14%
ClpP mod	-0.1%	6.1%	x	-2.2%	0.8%	0.4%	-3.9%	-5.0%

Continuation:
#	Molecule	Sfp inh	D2 ag	PINK1 modulator	gsp antag	Menin-MLL FL inh	gsp ag	ClpP mod
33	CC1Nc2nc(N(C)C)[nH]c(=O)c2NC1C (centres undefined)	-8%	-0.8	0.1%	8%	-7.1	-3%[15.4 µM]	1.0%
34	Cc1ccc(C(=O)NNC2=Nc3cccc4cccc2c34)cc1	4%	-3.5	u	u	3.3	-23%	1.1%
35	O=C(COC(=O)c1ccc(F)cc1F)Nc1ccc(Cl)cn1	x	-3.4	0.0%	0%	x	-34%[inhibitor]	0.3%
36	Cc1ccc(C(=O)COC(=O)CSc2cccc3cccnc23)c(C)c1	x	-5.2	3.9%	-12%	x	-1%	-7.8%
37	CSCCC(N=C1NS(=O)(=O)c2ccccc21)C(=O)N1CCCC(C(N)=O)C1 (centres undefined)	x	-4.9	1.9%	5%	x	-46%	-0.1%
38	O=C(CNC(=O)C(c1ccccc1)c1ccccc1)N/N=C\c1ccc2c(c1)OCO2	-10%	2.8	3.2%	7%	11	-5%	-1.5%
39	COC(=O)Nc1c(C)n(C)n(-c2ccccc2)c1=O	16%	-2.2	0.5%[38.3 µM]	4%	1.7	2%	-2.4%
40	COc1cc(NC(=O)c2cc(-c3ccccc3Cl)on2)cc(OC)c1OC	-12%	-2.7	9.1%	-11%	-2.3	11%[15.4 µM]	-2.1%
41	CN1CCN(C(=O)c2ccc(-n3cccc3)cc2)CC1	11%	-3.1	4.0%[38.3 µM]	5%	4.9	-3%	0.8%
42	CCc1ccc(NC(=O)C(C)OC(=O)c2cc(=O)[nH]c3ccc(S(=O)(=O)Nc4ccc(F)cc4)cc23)cc1 (centres undefined)	17%	-4.6	1.1%	-7%	-1.9	-33%[inhibitor]	-2.4%
43	COc1cccc2cc(C(C)N(CCCN3CCOCC3)C(=S)Nc3cccc(C)c3C)oc12 (centres undefined)	14%	-3.5	2.5%	-21%	3.0	18%	x
44	O=C1NCCCC2c3c(cc(Br)c(O)c3Br)OC12N1CCOCC1 (centres undefined)	u	2.1	-1.5%	4%	6.6	-80%[inhibitor]	-2.7%
45	COC(=O)C1=NN(C(C)=O)C2(CC(=O)N(c3cccc(C)c3)C2=O)C1 (centres undefined)	-16%	-2.1	-0.6%	9%	x	16%[15.4 µM]	-2.1%
46	COc1ccc(NC(=S)Nn2cnnc2)cc1OC	20µM*	-0.3	0.4%	x	3.0	17%[15.4 µM]	x
47	C=CC[C@@H](CC(=O)N(CCO)Cc1ccccc1)C(=O)N[C@@H](COC(=O)[C@@H](CC=C)CC(=O)OC(C)(C)C)Cc1c[nH]c2ccccc12	x	3.6	-0.7%	u	x	x	-5.0%

Four compounds out of the list, arranged by heavy-atom count, low to high.
#	Molecule	Sfp inh	D2 ag	PINK1 modulator	gsp antag	Menin-MLL FL inh	gsp ag	ClpP mod
33	CC1Nc2nc(N(C)C)[nH]c(=O)c2NC1C (centres undefined)	-8%	-0.8	0.1%	8%	-7.1	-3%[15.4 µM]	1.0%
45	COC(=O)C1=NN(C(C)=O)C2(CC(=O)N(c3cccc(C)c3)C2=O)C1 (centres undefined)	-16%	-2.1	-0.6%	9%	x	16%[15.4 µM]	-2.1%
38	O=C(CNC(=O)C(c1ccccc1)c1ccccc1)N/N=C\c1ccc2c(c1)OCO2	-10%	2.8	3.2%	7%	11	-5%	-1.5%
47	C=CC[C@@H](CC(=O)N(CCO)Cc1ccccc1)C(=O)N[C@@H](COC(=O)[C@@H](CC=C)CC(=O)OC(C)(C)C)Cc1c[nH]c2ccccc12	x	3.6	-0.7%	u	x	x	-5.0%

Entries from the list above that have two or more sulfur atoms, in the order listed:
#	Molecule	Sfp inh	D2 ag	PINK1 modulator	gsp antag	Menin-MLL FL inh	gsp ag	ClpP mod
17	Cc1nnc(NC(=O)c2sc3ccccc3c2Cl)s1	-12%	-2.7	0.5%	u	10	u	-5.9%
25	O=S(=O)(c1ccc(=S)[nH]c1)N1CCCC1	x	-4.4	2.4%	3%	x	-8%[15.4 µM]	-0.1%
37	CSCCC(N=C1NS(=O)(=O)c2ccccc21)C(=O)N1CCCC(C(N)=O)C1 (centres undefined)	x	-4.9	1.9%	5%	x	-46%	-0.1%

High-throughput results from PubChem.
